NPYLR7 ag = mosquito NPYLR7 agonism. HEK293T NPYLR7/Galpha15, GCaMP6s calcium fluorescence. activation, % at 10 µM. actives 0.15% (n = 270,000); in the data active = activation above about 40%;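 note: 0% = vehicle and 100% = reference agonist at the receptor; some compounds past the cut are filed as inactive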
NPYLR7 ag max-min = second read-out of NPYLR7 ag, no call of its own (marks repeat the call); activation, %; measured here: Max-Min RFU normalised activation; some inactives read as strong as hits;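 span of the calcium signal over five minutes; 0% = vehicle and 100% = native peptide agonist; compound fluorescence can raise it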
* hit, by the source's call; & = joins results of further samples. A portion of the library; rates above refer to the full screens.

SMILES	NPYLR7 ag	NPYLR7 ag max-min
CCC1CCC(C(=O)NCC(=O)N2CCC(CN)C2)CC1 (centres undefined)	4	2
O=C(C1CCCC1)N1CCCC(N2CCN(c3ccc(F)cc3)CC2)C1 (centres undefined)	2	2
O=C(/C=C/c1ccc2c(c1)OCCO2)Nc1ccc2[nH]c(=O)[nH]c2c1	7	4
CNc1cccc(-c2ccc(N3CCN(C)CC3)nc2)n1	4	1
COCCCN(CC(=O)N1CCc2sccc2C1c1ccc(Cl)cc1Cl)S(=O)(=O)/C=C/c1ccccc1 (centres undefined)	-8	-12
c1sc(CN2CCC3(CCOCC3)CC2)cc1CN1CCCC1	2	-1
CCC(C(=O)N1CCCC1C(=O)Nc1nnc(-c2ccc(N(C)C)cc2)s1)c1ccccc1 (centres undefined)	-2	0
Cc1ccc(C)c(NCCn2c(C)cn3c4c(=O)n(C)c(=O)n(C)c4nc23)c1	2	-2
CCOc1cnn(-c2ccc(Cl)cc2)c(=O)c1Nc1cccc(C(=O)N2CCN(C)CC2)c1	8	24
CC(=O)c1cccc(NC(=O)CCN2C(=O)c3cccc([N+](=O)[O-])c3C2=O)c1	-7	-9
O=C(c1ccc(C(F)(F)F)cc1)N1CCN(c2nc(-c3ccco3)nc3cc(Cl)ccc23)CC1	24	15
CCCN(CCC)C(=O)c1cnc2c(c1)c(C#N)cn2Cc1ccccc1	1	0
COc1cc(NC2=CC(=O)CC(c3ccc(F)cc3)C2)c(OC)cc1Cl (centres undefined)	-4	-9
CCN(Cc1cnn(C)c1)S(=O)(=O)c1ccc(C(C)NC(C)=O)s1 (centres undefined)	1	-4
Cc1cccc(Cc2nnc(NC(=O)N(C)Cc3ccco3)s2)c1	-3	-14
CC1(C(=O)NS(=O)(=O)c2ccc(F)cc2F)CCN1C(=O)CC(c1ccccc1)c1ccccc1 (centres undefined)	-2	-7
O=C(O)c1cccc(-c2cn(C3CCN(Cc4ccsc4)CC3)nn2)c1	20	6
O=C(COc1ccc(Cl)cc1)NC1CCN(c2ccccc2C(=O)NCC2CCCCC2)CC1	24	24
COc1ccc(/C=C2\C(=O)N(c3ccccc3)N=C2c2ccccc2)cc1OC	-7	-11
CCOc1ccc(NC(=O)N(CCCOC)Cc2nc(C(=O)OC)cs2)cc1	-4	-2
COC(=O)C1=C(C)OC(=N)C(C#N)C1c1ccc(C(C)C)cc1 (centres undefined)	-4	-4
Cc1noc(-c2cccs2)c1C(=O)NCC1COC(C)(C)O1 (centres undefined)	2	15
CC(C)Oc1ccccc1C=C1C(=O)OC(c2ccccc2)OC1=O (centres undefined)	2	2
CC1CN(C(=O)c2cc3ccsc3n2Cc2cccc(F)c2)CCN1C(=O)Cc1cccs1 (centres undefined)	24	28
Clc1ccc(/C=C/c2ncc3ccccn23)cc1	-7	-8
COc1ccc(NC(=O)CCC2CCCN(Cc3csc(C(C)=O)c3)C2)c(C)c1 (centres undefined)	3	-3
CCC(NC(=O)N1CCS(=O)(=O)CC1C)c1cccc(Cl)c1 (centres undefined)	0	-3
COc1cccc(Cn2c(=O)c(C(=O)O)nn(-c3ccc(C(F)(F)F)cc3)c2=O)c1	35	49
CC1CCC2(CC1)OCC(C(=O)NC(C)c1ccccc1)N2C(=O)c1cccc(C(F)(F)F)c1 (centres undefined)	5	16
COc1ccc(OCC(=O)NCCOc2ccccc2)c([N+](=O)[O-])c1	6	2
O=C(N[C@@H]1CCCCC1NC(=O)C1CCN(S(=O)(=O)/C=C/c2ccccc2)CC1)c1ccccc1 (some centres undefined)	15	15
O=C(CC1CC2CCC1C2)N1CCN(c2ccccc2O)CC1 (centres undefined)	2	1
Cc1cc(N2CCOCC2)nc(Nc2ccc(NS(=O)(=O)c3cc(C)c(C)cc3C)cc2)n1	10	9
Cc1nc2ccc(Cl)cn2c(=O)c1NC(=O)NCc1ccccc1	2	2
CCC(NC(=O)c1ccccc1Cl)C1c2cc(OC)c(OC)cc2CCN1Cc1ccccc1F (centres undefined)	10	12
COc1cccc(-n2nc(C(=O)NCc3ccc(F)cc3)c(=O)n(Cc3cccc(C)c3)c2=O)c1	9	15
O=S(=O)(c1ccc2c(c1)nc(SCc1ccc3ccccc3c1)n2CCCN1CCOCC1)N1CCOCC1	22	16
COc1ccc(CN(Cc2nc(C(=O)NCC3CCCO3)co2)C(C)c2ccccc2)c(OC)c1 (centres undefined)	16	34
CCCNc1nc2ccccc2nc1NS(=O)(=O)c1ccc(C)cc1C	-21	-25
N#CC(=Cc1ccc(O)cc1)S(=O)(=O)c1cc(Br)ccc1Br	7	13
CC(C)NC(=O)[C@@H]1C[C@@H](N)CN1Cc1cc(C(C)C)no1	29	22
COc1ccc(Cl)cc1NC(=O)CCC1CCCN(C(=O)c2ccsc2)C1 (centres undefined)	15	7
O=[N+]([O-])c1ccccc1N=Nc1c(O)[nH]c2ccc(Br)cc12	-3&-10	-12&-15
CCOCCCn1c(C)c(C)n2c3c(=O)n(C)c(=O)n(C)c3nc12	3	-2
COc1ccc(-c2cc(C(=O)O)n3nc(C(C)(C)C)cc3n2)cc1	-7	-3
Cc1ccn2c(NC3CCCCC3)c(-c3ccccc3O)nc2c1	6&-4	9&-9
CCC1=C(C)CN(C(=O)NCCc2ccc(S(=O)(=O)NC(=O)NC3CCC(C)CC3)cc2)C1=O (centres undefined)	-1&-4	-6&-7
CCOc1ccccc1N1CCN(C(=O)c2cc(-c3ccccc3Cl)nn2-c2cccc(Cl)c2)CC1	-2	7
CCOC(=O)c1ccc(N2CN=c3sc(=Cc4cccc(Br)c4)c(=O)n3C2)cc1	-5	-10
Cc1ccc(C)c(C(C)NC(=O)c2ccc(CNC(N)=O)cc2)c1 (centres undefined)	5	4
COc1ccc(CN(Cc2nc3cc(C)ccc3o2)C(=O)C(OC(C)=O)c2ccccc2)cc1 (centres undefined)	3	-3
CC(C)c1noc(C(C)Sc2nccn2C2CC2)n1 (centres undefined)	2	1
O=C1CCCC2=C1C(c1ccco1)Nc1ccc3ccccc3c12 (centres undefined)	4	4
Cc1cn2c3c(=O)n(CCc4ccccc4)c(=O)n(C)c3nc2n1CCCO	1	0
COc1ncccc1CNC(=O)c1c[nH]cc1-c1ccc(Cl)s1	8	8
CCCCN1C(=O)C(=Cc2c(N3CCCCC3)nc3ccc(C)cn3c2=O)SC1=S	1	-1
O=C(NNS(=O)(=O)c1ccc2c(c1)CCCC2)c1ccccc1O	4	2
Nc1c(Cl)cc(NCN2C(=O)c3ccccc3C2=O)cc1Br	-9	-15
Cc1cc(C)c2nc(N(CCCN(C)C)C(=O)C3=COCCO3)sc2c1	5	4
CCC(C)NC(=O)c1nn(-c2ccc(C(C)C)cc2)c(=O)n(Cc2cccc(C(F)(F)F)c2)c1=O (centres undefined)	-3	4

Going on with the list:
SMILES	NPYLR7 ag	NPYLR7 ag max-min
O=C(O)c1cc(Br)cc(S(=O)(=O)NC2CCCCC2)c1	1	0
Cn1cccc1C1CCCN1Cc1cc(=O)n(C)c(=O)n1C (centres undefined)	0	0
O=C(c1cccc2nccnc12)N1C[C@@H]2[C@H](C1)[C@H]1CC[C@@H]2O1	6	6
CCCc1nn(-c2ccc([N+](=O)[O-])cc2)c(CC)c1C(=O)NCc1ccccn1	37	20
COC(=O)[C@@H]1C[C@H](NC(=O)c2csc(Cc3ccccc3)n2)CN1C	8	3
O=C(Nc1ccc2[nH]cc(CCN3CCCC3)c2c1)c1cc(C(F)(F)F)cc(C(F)(F)F)c1	29	17
CCCCCCCCCCCCCC(=O)N1CCN(Cc2cc(=O)c(OCc3ccc(C(F)(F)F)cc3)co2)CC1	-6	-8
COc1ccc(C2(C(=O)N3CCC4(CCCO4)CC3)CCCC2)cc1	10	7
Fc1ccc(-c2cc3ncnc(-n4ccnc4)c3s2)cc1	8	8
COc1cccc(C(=O)NC[C@@H]2[C@H](O)[C@@H]3O[C@H]2c2ccccc23)c1	16	26
c1csc(-c2nc(NC3CCCC3)c3ccccc3n2)c1	10	5
CC(NC(=O)C1(c2ccc(Cl)cc2)CCC1)c1nncn1C(C)C (centres undefined)	0	-2

Of the compounds above, 4 have an NH in an aromatic ring:
SMILES	NPYLR7 ag	NPYLR7 ag max-min
O=C(/C=C/c1ccc2c(c1)OCCO2)Nc1ccc2[nH]c(=O)[nH]c2c1	7	4
O=[N+]([O-])c1ccccc1N=Nc1c(O)[nH]c2ccc(Br)cc12	-3&-10	-12&-15
COc1ncccc1CNC(=O)c1c[nH]cc1-c1ccc(Cl)s1	8	8
O=C(Nc1ccc2[nH]cc(CCN3CCCC3)c2c1)c1cc(C(F)(F)F)cc(C(F)(F)F)c1	29	17

Record cards (already shown). Order of values: NPYLR7 ag	NPYLR7 ag max-min
Results for O=C(c1cccc2nccnc12)N1C[C@@H]2[C@H](C1)[C@H]1CC[C@@H]2O1 : 6	6
Results for CCCCCCCCCCCCCC(=O)N1CCN(Cc2cc(=O)c(OCc3ccc(C(F)(F)F)cc3)co2)CC1 : -6	-8
Results for CCN(Cc1cnn(C)c1)S(=O)(=O)c1ccc(C(C)NC(C)=O)s1 (centres undefined) : 1	-4

Following part:
SMILES	NPYLR7 ag	NPYLR7 ag max-min
CCc1cccc2c(C(CC(=O)NCCOC)c3ccc4c(c3)OCO4)c[nH]c12 (centres undefined)	-4	2
CCCCC(CC)C(=O)N1CCN(C(=O)CCCCSc2nnc(Cc3ccccc3)n2-c2cccc(C(F)(F)F)c2)CC1C (centres undefined)	6	6
Cc1cc(NCC(C)n2nc(C)cc2C)nc(N(C)C)n1 (centres undefined)	19	11
O=C(NC(C(=O)NC1CC1)C1CCN(C(=S)Nc2ccc(F)cc2)CC1)c1ccc2c(c1)OCO2 (centres undefined)	5	4
C#CCOCC(O)CN(CCC(C)C)Cc1cccc(OC)c1OC (centres undefined)	-3	6
COc1ccc(-n2[nH]c(C)c(C3=C(N4CCCC4)C(=O)N(c4ccc(C)cc4)C3=O)c2=O)cc1	4	9
COc1ccc(Br)c(Cn2c(C)c(C(=O)Nc3ccc(C)cc3)sc2=O)c1	8	5
CCOC(=O)c1cc(-c2ccc(N3CCN(C(=O)c4ccc(C#N)cc4)CC3)cc2)n(-c2ccccn2)n1	6	0
CCOC(=O)c1cc(-c2ccc(N3CCN(C(=O)COCc4ccccc4)CC3)cc2)n(-c2ccccc2Cl)n1	20	7
CCOc1ccc2nc(NC(=O)COc3ccccc3C)sc2c1	-10	-18
COc1ccc2[nH]c(CNC(C)Cn3nc(C)cc3C)cc2c1 (centres undefined)	1&2	3&1
COc1cc(C(=O)OCC(=O)c2ccccc2)cc(OC)c1O	0	-2
CNc1ccc(Cl)cc1C1NCCc2ccccc21 (centres undefined)	8	12
COc1ccc2sc(Nc3ccc4c(c3)OCCO4)nc2c1	-3	6
COc1ccc(C2CNCC2C(=O)N2CCCC2)c(OC)c1 (centres undefined)	21	11
Cc1nnc(SCC(=O)NCC2(Cn3cccn3)CC2)s1	4	-2
Cc1ccc(Cc2nsc(Oc3ccc(CC(=O)Nc4ccc(C)cc4)cc3)n2)cc1	24	32
CCOc1ccc(NC(=O)N2CCN(C(=O)CCN3CCc4sccc4C3c3cccc(F)c3)CC2C)cc1 (centres undefined)	12	3
COc1ccccc1-c1ccnc2nc(C)nn12	-3	-10
O=C(Cn1cccn1)NCCc1ccccc1Br	-5	-5
COc1ccc(-c2cc(N)n(-c3ccc(C(=O)NCCc4cccc(OC)c4)cc3)n2)cc1	10	9
COCCNC(=S)NN=Cc1sccc1C	-7	-12
CN(Cc1ccc(CN)cc1)C(=O)OC(C)(C)C	2	-2
Cc1nc(CN(C)C(=O)c2ccc3cccc(Cl)c3n2)cs1	-7	-11

The last 7 records of the part before open the next one.
SMILES	NPYLR7 ag	NPYLR7 ag max-min
CCOc1ccc(NC(=O)N2CCN(C(=O)CCN3CCc4sccc4C3c3cccc(F)c3)CC2C)cc1 (centres undefined)	12	3
COc1ccccc1-c1ccnc2nc(C)nn12	-3	-10
O=C(Cn1cccn1)NCCc1ccccc1Br	-5	-5
COc1ccc(-c2cc(N)n(-c3ccc(C(=O)NCCc4cccc(OC)c4)cc3)n2)cc1	10	9
COCCNC(=S)NN=Cc1sccc1C	-7	-12
CN(Cc1ccc(CN)cc1)C(=O)OC(C)(C)C	2	-2
Cc1nc(CN(C)C(=O)c2ccc3cccc(Cl)c3n2)cs1	-7	-11
Cc1ccc(C(=O)O/N=C(\c2nonc2N)N(C)C)cc1	-5	-9
O=C(N1N=CCC1c1ccccc1)C12CC3CC(CC(C3)C1)C2 (centres undefined)	-7	-5
Cc1cc(Oc2ccc(Cl)cc2)nc(SCc2ccc(C(C)(C)C)cc2)n1	25	17
c1ccc(CCCCc2nn3c(C4CC4)nnc3s2)cc1	-7	-8
CC(C)NC(=O)c1csc(C(O)Cc2ccccc2)n1 (centres undefined)	-1	-2
COc1ccc(/C(C)=N\NC(=O)c2cc(C3CC3)[nH]n2)cc1	6	4
O=C(NCCCN1CCCC1=O)C(C1CCCC1)N1CCN(C(=O)C2CCC2)CC1 (centres undefined)	-1	5
CC(CNC(=O)c1cccnc1)NC(=O)c1cccnc1 (centres undefined)	-3	-3
COc1ccccc1-c1nc2ccc(C)cn2c1NC(C)(C)CC(C)(C)C	-6	-1
CCCc1noc(-c2ccc(OC)c(OC)c2)n1	-5	-10
Cc1c[nH]c(C(=O)NC2CC(=O)N(Cc3cccc4ccccc34)C2)c1 (centres undefined)	-2	-3
Cc1cc2c(cc1C)NC(c1ccsc1)C1C(=O)CC(C)(C)CC1=N2 (centres undefined)	-1	-1

No new results follow: two of the compounds above.
SMILES	NPYLR7 ag	NPYLR7 ag max-min
COc1ccc(-c2cc(C(=O)O)n3nc(C(C)(C)C)cc3n2)cc1	-7	-3
Cc1ccn2c(NC3CCCCC3)c(-c3ccccc3O)nc2c1	6&-4	9&-9

(further entries)
SMILES	NPYLR7 ag	NPYLR7 ag max-min
CC(C)CC1=NN(C(=O)c2ccccc2Br)C(O)(C(F)(F)F)C1 (centres undefined)	4	3
CC(C)c1ccc(OCCNC(=O)N(C)CC2CCN(C)C2)cc1 (centres undefined)	-1	-7
CN(C)c1oc(-c2ccccc2)nc1S(=O)(=O)c1ccccc1	6	60
COc1ccc(NC(=O)Nc2ccc(-n3nc(OCC(C)C)nc3-c3ccccc3F)cc2)cc1	4	11

Compound activity deposited in PubChem by Fisher Drug Discovery Resource Center.
